TRPV1 potentiator = enhances activation of the human vanilloid receptor TRPV1 | AID 540277 | 0.02% of 320,000 active | TRPV1-expressing cells, Fluo-8 calcium influx, capsaicin EC20 potentiation; host cell line not named in the record; control for the full effect not named in the record | Q8NER1 | potentiation, % at 8.33 µM; active means potentiation above 80%; inconclusive means 30% to 80%; inactive means below 30%; note: 0% is about no effect
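TRPV1-expressing cells were cultured overnight at 35.5C and loaded with Fluo-8 calcium dye for 40 to 90 min at room temperature. After a 10 s baseline, compound was added and calcium influx was read kinetically for 3 min (ex 480/em 520 nm).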
Six1-Eya2 inh = inhibitors of human Six1/Eya2 interaction; Q15475+O00167; AlphaScreen GST-Six1/His-Eya2 binding, biochemical; stronger effect = lower value; control for the full effect not named in the record; activity change, % (no concentration beside the values); 0.56% of 360,000 active; AID 651725; in the data active = activity change below about -65%; inconclusive = about -30% to -65%; inactive = above about -30%; note: % is set by controls: 0 for no effect and ±100 for the full control effect; compound concentration not given in the record
Target sequence (O00167 whole entry, looked up): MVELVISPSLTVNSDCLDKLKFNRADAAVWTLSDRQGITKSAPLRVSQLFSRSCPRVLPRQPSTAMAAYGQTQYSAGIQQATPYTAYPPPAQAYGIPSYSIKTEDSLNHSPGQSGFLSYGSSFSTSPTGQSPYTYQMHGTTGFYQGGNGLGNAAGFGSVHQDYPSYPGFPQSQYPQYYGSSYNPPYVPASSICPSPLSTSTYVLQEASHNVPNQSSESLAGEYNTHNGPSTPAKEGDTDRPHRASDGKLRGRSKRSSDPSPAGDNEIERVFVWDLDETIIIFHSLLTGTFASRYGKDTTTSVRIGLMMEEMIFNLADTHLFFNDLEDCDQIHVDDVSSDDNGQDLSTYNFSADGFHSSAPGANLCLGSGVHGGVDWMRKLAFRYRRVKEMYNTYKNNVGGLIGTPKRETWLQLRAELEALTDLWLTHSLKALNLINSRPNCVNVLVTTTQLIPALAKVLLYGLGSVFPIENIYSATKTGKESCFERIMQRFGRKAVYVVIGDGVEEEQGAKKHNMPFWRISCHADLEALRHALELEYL
Target sequence (Q15475 whole entry, looked up): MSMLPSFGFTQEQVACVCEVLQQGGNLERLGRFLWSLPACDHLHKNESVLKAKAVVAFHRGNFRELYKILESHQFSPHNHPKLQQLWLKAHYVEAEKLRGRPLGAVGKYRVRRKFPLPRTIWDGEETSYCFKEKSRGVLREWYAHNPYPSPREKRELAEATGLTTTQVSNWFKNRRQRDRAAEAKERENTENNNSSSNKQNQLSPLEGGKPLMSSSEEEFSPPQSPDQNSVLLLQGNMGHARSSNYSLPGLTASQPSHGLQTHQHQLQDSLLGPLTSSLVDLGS
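AlphaScreen with GST-Six1 and His-Eya2 (5X mix: 250 nM and 500 nM), glutathione donor and nickel acceptor beads; buffer 50 mM Tris pH 8.0, 300 mM NaCl, 1 mM TCEP; 1 h at 37 C in the dark.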
PINK1 modulator = changes PINK1 expression; PINK1 immunofluorescence, high-content cytometry, 24 h; Potency, µM (titrated, usually from 76.6 µM), without a hit: top-dose activation (PINK1 increase), hits mostly activators; 0.2% of 410,000 active; AID 624263; active = well fitted activation curve with a large enough effect; inconclusive = small, poorly fitted or top-dose-only effect; inactive = flat fitted curve, though single readings scatter; cell line not stated here;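 note: potency is the fitted concentration of half-maximal effect; % of control where 0% means no effect; nearly all actives have a fitted effect of over 65% in size; a mitochondrial uncoupler was the plate control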
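PINK1 protein level read as immunofluorescence by microplate cytometer in a fixed, stained stable cell line after 24 h exposure to five compound concentrations, with CCCP as control.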
D2 ag = human D2 receptor agonism in beta-arrestin assay; AID 624465; activation, % (concentration not given with the values); P14416; DiscoveRx PathHunter D2 beta-arrestin, luminescence, 90 min; 100% = 57 uM dopamine signal; 0.084% of 360,000 active; in the data active = activation above about 40%; inconclusive = about 15% to 40%; inactive = below about 15%; note: compound concentration not given in the record; the text of the record calls up to 30% inactive
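DiscoveRx PathHunter D2 beta-arrestin cells (2,100/well) attached overnight, then compound-stimulated 90 min at 37 C in HBSS/10 mM HEPES/0.1% Tween-20 buffer; beta-galactosidase complementation read by luminescence after 1 h at ambient temperature. Dopamine 57 uM final (EC100) as control.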
CtBP-E1A inh = inhibitors of CtBP/E1A interaction; AlphaScreen GST-E1A/His-CtBP binding, 1536-well; stronger effect = lower value; control for the full effect not named in the record; activity change, % (concentration not given with the values); 0.49% of 340,000 active; AID 651724; in the data active means activity change below about -65%; inconclusive means about -30% to -65%; inactive means above about -30%; note: % is set by controls: 0 for no effect and ±100 for the full control effect
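In 5 uL wells, 23 nL compound meets equimolar GST-E1A and His-CtBP (5X stock 125 nM each) for 2 h, 37 °C. Beads (5X, 50 ug/mL) then 1 h, 37 °C, dark.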
Sfp inh = Sfp phosphopantetheinyl transferase inhibition; Q9F4F7; Biochemical Sfp PPTase activity, qHTS; Potency, µM, without a hit: max response, negative = inhibition, actives largely listed as inhibitors; 3.5% of 310,000 active; AID 1490; active = well fitted inhibition curve with a large enough effect; inconclusive = small, poorly fitted or top-dose-only effect, or another doubt; inactive = no such curve, though single readings can be large or run the other way;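 note: the enzyme is Sfp with the accession as filed and its product quenches rhodamine fluorescence; potency is the fitted concentration of half-maximal effect; 0% = enzyme reaction without inhibitor and -100% = no enzyme wells; top concentration of the series not given in the record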
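With Hepes-Na pH 7.6 buffer containing 10 mM MgCl2, Sfp (15 nM) modified BHQ-2-YbbR (12.5 uM) using rhodamine-CoA (5 uM). Two reads 30 minutes apart at 525/598 nm yielded each well's rate.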
D2 potentiator = positive allosteric modulators of human D2 dopamine receptor; potentiation, % (test concentration not listed); AID 624464; DiscoveRx D2 beta-arrestin cells, luminescence, 90 min; 100% = 57 uM dopamine signal; 0.23% of 360,000 active; active = potentiation of 50% or more; inconclusive = 30% to 50%; inactive = 30% or less;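 note: compound concentration not given in the record; tested on top of an EC20 dose of dopamine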
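PathHunter D2 cells, attached overnight at 37 deg C, received compound in DMSO plus dopamine at EC20 (50 nM final) for 90 min at 37 deg C. Beta-arrestin recruitment was read as luminescence after 1 h with detection reagent at ambient temperature.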
Active calls of the source: *; ? = inconclusive; . = not tested or not shown; [ ] = dose if it differs, or a comment.

Molecule,TRPV1 potentiator,Six1-Eya2 inh,PINK1 modulator,D2 ag,CtBP-E1A inh,Sfp inh,D2 potentiator
O=C(COC(=O)C1CC2C=CC1C2)NCc1ccco1 (stereo not drawn),10,?,-0.9%,-3.5,1,-1%,1
CCC(=O)N(CCC(c1ccco1)C(C)C)Cc1ccccc1 (stereo not drawn),-2,-13,4.8%,-0.9,1,45µM*,-1
COc1cc(S(=O)(=O)N2CCOCC2)cc(C(=O)NCC(c2cccs2)N2CCOCC2)c1OC (stereo not drawn),.,0,18%,-0.5,.,.,10
CCN(CC)c1ncnc2c1ncn2[C@H]1CN(Cc2cccnc2)C[C@@H](CO)O1,.,3,2.5%,-8.4,4,.,-7
Cc1ccc(CCNC(=O)C2CCCN(S(=O)(=O)N3CC(C)CC(C)C3)C2)cc1 (stereo not drawn),-12,1,1.4%,3.1,4,14%,-8
COC(=O)c1cc(C#N)c(NCc2ccc(Cl)cc2Cl)nc1C,-15,-12,12%,-3.4,13,22%,-3
O=C(Oc1cccc2ccccc12)C1CC1,-20,5,4.2%,-5.2,19,-7%,-9
Cc1nc2cc(N3CCCCC3)c(NC(=O)c3cccnc3)cc2c(=O)n1Cc1ccccc1,7,3,2.9%,-2.3,-5,8%,4
Cn1ccnc1SCC(=O)c1cc2ccccc2o1,7,-6,-3.5%[38.3 µM],-2.0,5,-21%,-6
COc1ccc(-c2ccc(CCC(=O)O)n2NC(N)=O)cc1,-11,2,0.3%,-1.9,2,-15%,-10
O=C1NC[C@@H](CCCCN2C[C@H](Cc3ccccc3)N(Cc3ccccc3)C(=O)C2=O)N(CC2CCCCC2)C1=O,.,0,2.0%,.,2,.,.
COc1ccc(-c2cnc3c(NC=O)cc(-c4ccc(C(=O)N5CCOCC5)cc4)cn23)cc1OC,.,-9,9.1%,14,-2,.,14
CCc1ccc(-c2cc3c(=O)n(CC(=O)NCCN4CCCCC4C)nc(C)n3n2)cc1 (stereo not drawn),0,4,-1.7%,-2.8,-5,4%,-11
O=[N+]([O-])c1ccc(N2CCN(c3ccccc3F)CC2)nc1,-12,1,6.9%,1.6,4,4%,-6
O=C(/C(C=Nc1ccc(Br)cc1)=C(/O)c1ccco1)C(F)(F)F,-9,-7,2.5%,-2.0,-14,6%,-19
O=[N+]([O-])c1ccc(N2CCCCC2)cc1SCCO,-11,-7,3.7%,-1.9,5,13%,-16
O=C1C(=O)C(c2ccccc2)C(=O)C1c1ccccc1 (stereo not drawn),.,-24,-0.4%,-5.5,-14,.,-13
COCCn1c(C)cc(C(=O)CN2C(=O)C(=O)N(CCC3=CCCCC3)C2=O)c1C,.,-7,2.4%,-1.9,-1,.,-7
COc1cc2c(cc1OC)C(c1cccc([N+](=O)[O-])c1)N(C(=O)c1ccccc1C(=O)O)CC2 (stereo not drawn),20,0,-0.3%,2.7,10,18%,-14
COc1ccc(-c2nnn(CCC(=O)O)n2)cc1,-19,2,1.0%[38.3 µM],-2.8,7,2%,4
O=C(CSc1ncn[nH]1)Nc1nnc(-c2ccccc2)s1,2,-9,-0.1%,-1.7,2,0%,-2
C[C@H](CO)N1C[C@H](C)[C@@H](CN(C)Cc2ccccc2C(=O)O)OCc2cnnn2CCCC1=O,.,9,0.8%,-3.2,-10,.,-6
CC(C)CN1C(=O)/C(=C/c2ccco2)NC1=S,-6,-16,1.6%,-2.9,2,35µM*,-6
COC(=O)c1c(C)cccc1C1CN=NC12Cc1ccccc1C2=O (stereo not drawn),.,8,-2.5%,-3.6,8,.,-12
CCOc1cc(NC(=S)N2CCC(C(N)=O)CC2)c(C(=O)OC)cc1OCC,-1,4,2.7%,-0.8,-8,-27%,-7
COC(=O)CC1Oc2ccccc2N(Cc2ccccc2)C1=O (stereo not drawn),-19,9,-3.2%,-2.7,4,18%,-3
CCc1cc(=O)oc2c(C)c(OCC(=O)NCCN3CCOCC3)ccc12,9,0,-0.2%,-3.9,-6,10%,-8
COc1cccc(NC(=O)CN(C)C(=O)c2ccc(COc3ccccc3)cc2)c1,-1,-7,1.1%,-5.0,0,.,-32
C=C(C1=CCN(S(=O)C(C)(C)C)[C@H]1CCO)c1ccccc1 (stereo partly drawn),.,4,-0.7%,-1.9,-22,.,.
CC(=O)CSc1cc(C)nc2c(-c3ccccc3)c(C)nn12,1,2,-1.6%,-3.5,-1,19%,-3

Two compounds drawn at random from those above, as already listed:
Molecule,TRPV1 potentiator,Six1-Eya2 inh,PINK1 modulator,D2 ag,CtBP-E1A inh,Sfp inh,D2 potentiator
O=C(COC(=O)C1CC2C=CC1C2)NCc1ccco1 (stereo not drawn),10,?,-0.9%,-3.5,1,-1%,1
COc1ccc(-c2nnn(CCC(=O)O)n2)cc1,-19,2,1.0%[38.3 µM],-2.8,7,2%,4

(list continues)
Molecule,TRPV1 potentiator,Six1-Eya2 inh,PINK1 modulator,D2 ag,CtBP-E1A inh,Sfp inh,D2 potentiator
CC(=NCc1cccnc1)C1=C(O)c2ccccc2C1=O,23,-3,0.6%,-1.7,-4,8%,-16
CCCCCC1CC(CC#CCN2CCOCC2)C(=O)O1 (stereo not drawn),-88,10,-3.5%[38.3 µM],3.5,22,-5%,-5
O=C(NNC(=O)c1ccccc1O)c1cccc(Br)c1,7,9,1.3%,-3.3,.,32%[activator],-31
CC(=O)c1c(N2CCN(C)CC2)nc(=S)n(Cc2ccccc2)c1C,-2,8,-1.0%,-0.7,2,16%,-15
COC(=O)[C@H](C)NC(=O)NCc1ccccc1,12,9,3.6%,1.1,8,13%,-11
COCCNC(=O)C1(C)CCN(C(=O)Cc2ccc(OC)c(OC)c2)C1 (stereo not drawn),.,-9,-0.1%,-5.1,5,.,1
COc1ccc(CNC(=O)/C=C/c2cc([N+](=O)[O-])ccc2OC(F)F)cc1OC,3,-3,-1.7%[38.3 µM],-2.6,-5,10%,-15
CC(C)CCNC(=O)CN(Cc1ccco1)C(=O)c1snc(C(N)=O)c1N,-1,-5,-2.4%,1.2,9,2%,-6
Cc1[nH]nc(SCC(=O)NCc2ccc(Cl)cc2)c1[N+](=O)[O-],5,-1,4.9%,-2.1,1,1%,-18
CCNS(=O)(=O)c1ccc(CCC(=O)N2CCN(C(=O)OCC)CC2)cc1,-41,-3,3.5%,-1.9,.,12%,-3
CC(C)c1ccc(C2(O)C(=O)Nc3cc(Br)ccc32)c(O)c1 (stereo not drawn),?,-9,5.1%,-11,-8,9%,-11
c1ccc(COc2ccccc2CNC2CCCC2)cc1,-9,10,0.1%,-11,4,-4%,-27
COc1ccccc1NCC(O)COc1ccc(C(C)(C)C)cc1 (stereo not drawn),17,-21,-1.7%,4.3,4,?,1
COc1ccc(OC)c(NCc2nnc(-c3ccccc3)o2)c1,4,-15,-0.7%,-1.0,-12,24%,-3
CCCN1C(=O)/C(=C/c2ccc(OCc3ccc(C(=O)O)cc3)c(OC)c2)NC1=S,.,11,-1.0%,2.2,-12,.,1
COc1ccc(-c2cn(CCO)c(-c3ccc(Cl)nc3)n2)cc1,-6,-2,0.3%,0.0,1,.,-36
Cc1cccc(NC(=O)NCC(c2ccc(F)cc2)N2CCN(C)CC2)c1 (stereo not drawn),-17,0,-0.6%,-1.3,.,8%,-10
CSc1ccc(CN2CCc3c([nH]c4ccccc34)C2)cc1,15,?,10%,1.2,-8,-17%,-15
CC(=O)N1c2ccc3ccccc3c2C(C)CC12CCCCC2 (stereo not drawn),-5,12,-1.9%,-1.2,1,-8%,-21
CS(=O)(=O)c1ccc(C(=O)Nc2ccccc2N2CCOCC2)c(Cl)c1,8,0,0.9%,-6.0,-13,17%,1
CCC(C(=O)OCC(=O)NCc1ccc2c(c1)OCO2)c1ccccc1 (stereo not drawn),.,2,1.1%,-0.4,7,.,1
CC1CCc2nc(/C(C#N)=C/c3ccncc3)sc2C1 (stereo not drawn),-5,-6,8.1%,0.3,2,-24%,-1
O=C(CN1CCN(c2ccccc2)CC1)Nc1cccc([N+](=O)[O-])c1,13,-10,-2.0%,-0.7,-14,-3%,-14
CCOc1ccc(CCN2C(=S)N([C@@H](Cc3ccc(O)cc3)CN3CCC[C@@H]3CN3C(=S)NC[C@@H]3CC(C)C)C[C@@H]2Cc2ccccc2)cc1,.,-19,3.8%,-4.7,-12,.,-14

Some of the entries above in another layout.
Below each SMILES – TRPV1 potentiator | Six1-Eya2 inh | PINK1 modulator | D2 ag | CtBP-E1A inh | Sfp inh | D2 potentiator
O=C(COC(=O)C1CC2C=CC1C2)NCc1ccco1 (stereo not drawn)
→ 10 | ? | -0.9% | -3.5 | 1 | -1% | 1
CCC(=O)N(CCC(c1ccco1)C(C)C)Cc1ccccc1 (stereo not drawn)
→ -2 | -13 | 4.8% | -0.9 | 1 | 45µM* | -1
COc1cc(S(=O)(=O)N2CCOCC2)cc(C(=O)NCC(c2cccs2)N2CCOCC2)c1OC (stereo not drawn)
→ . | 0 | 18% | -0.5 | . | . | 10
CCN(CC)c1ncnc2c1ncn2[C@H]1CN(Cc2cccnc2)C[C@@H](CO)O1
→ . | 3 | 2.5% | -8.4 | 4 | . | -7
Cc1ccc(CCNC(=O)C2CCCN(S(=O)(=O)N3CC(C)CC(C)C3)C2)cc1 (stereo not drawn)
→ -12 | 1 | 1.4% | 3.1 | 4 | 14% | -8
COC(=O)c1cc(C#N)c(NCc2ccc(Cl)cc2Cl)nc1C
→ -15 | -12 | 12% | -3.4 | 13 | 22% | -3
O=C(Oc1cccc2ccccc12)C1CC1
→ -20 | 5 | 4.2% | -5.2 | 19 | -7% | -9
Cc1nc2cc(N3CCCCC3)c(NC(=O)c3cccnc3)cc2c(=O)n1Cc1ccccc1
→ 7 | 3 | 2.9% | -2.3 | -5 | 8% | 4

Screening data from PubChem.
